Insulin prom inh – TRM-6 insulin promoter activity inhibition. TRM-6 cells (human fetal islet line), insulin promoter-eGFP reporter, imaging; reporter expression induced with tamoxifen. inhibition, % at 2 µM. 0.9% of 130,000 active. AID 1273;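 active means inhibition above the mean plus 3 SD, with well images judged a real hit on visual review, cut at about 60% in these data, passing the limit was not always enough; inconclusive means inhibition over the cutoff but images rejected on review; inactive means inhibition not above the cutoff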
GALR2 ag – activates the human galanin receptor 2. O43603. activation, %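 (tested at 5 µM)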. AID 803. GALR2-expressing cells, agonist activation read-out. 0.48% of 140,000 active;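 active means above mean plus 3 SD of all compounds, about 5% in these data, not always enough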;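 further: 0% = vehicle buffer wells and 100% = reference agonist at full effect; tested in CHO reporter cells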
Target sequence (O43603 whole entry, looked up): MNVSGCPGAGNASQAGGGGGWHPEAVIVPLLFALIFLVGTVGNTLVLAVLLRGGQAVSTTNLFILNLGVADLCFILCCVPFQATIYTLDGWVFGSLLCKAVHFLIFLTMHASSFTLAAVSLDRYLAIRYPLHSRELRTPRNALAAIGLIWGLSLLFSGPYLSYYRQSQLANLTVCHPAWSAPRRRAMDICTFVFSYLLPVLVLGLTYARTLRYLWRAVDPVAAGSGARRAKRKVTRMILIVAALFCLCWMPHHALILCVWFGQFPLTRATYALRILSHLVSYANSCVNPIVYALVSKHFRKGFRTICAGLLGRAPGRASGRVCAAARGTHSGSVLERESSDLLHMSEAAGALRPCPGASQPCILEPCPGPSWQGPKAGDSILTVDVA
RGS16-Gao – modulates binding between human RGS16 and Galphao; O15492+P09471; bead-based flow cytometry RGS16-Galphao binding, fluorescence; actives lie on both sides; binding response (% of control), % at 10 µM; 0.38% of 220,000 active; AID 1441;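 active means below 25% or above 175%, edge rows of some plates excepted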;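 further: Galphao activated by GDP with aluminum fluoride before binding; 100% = wells without compound and 0% = beads without RGS; some results beyond the cut were filed as inactive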
Target sequence (O15492 whole entry, looked up): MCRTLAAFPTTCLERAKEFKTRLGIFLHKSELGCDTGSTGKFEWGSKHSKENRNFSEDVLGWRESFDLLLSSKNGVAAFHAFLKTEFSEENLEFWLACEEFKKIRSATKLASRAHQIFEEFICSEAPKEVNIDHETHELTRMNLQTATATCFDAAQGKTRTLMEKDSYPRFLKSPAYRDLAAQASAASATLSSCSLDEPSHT
Target sequence (P09471 whole entry, looked up): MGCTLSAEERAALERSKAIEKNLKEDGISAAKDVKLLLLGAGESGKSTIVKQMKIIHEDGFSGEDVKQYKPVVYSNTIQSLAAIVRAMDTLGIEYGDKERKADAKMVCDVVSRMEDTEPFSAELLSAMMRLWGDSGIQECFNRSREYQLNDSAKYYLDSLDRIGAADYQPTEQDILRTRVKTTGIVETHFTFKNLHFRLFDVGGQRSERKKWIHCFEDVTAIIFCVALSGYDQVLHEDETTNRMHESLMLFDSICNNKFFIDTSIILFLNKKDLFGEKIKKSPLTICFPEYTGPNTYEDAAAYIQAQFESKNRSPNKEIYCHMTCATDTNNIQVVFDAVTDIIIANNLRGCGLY
HSV augment – increases HSV replication in cells; HSV replication augmentation in cells, fold increase; maximum fold increase; 0.005% of 220,000 active; AID 1956;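 active means peak rise of 1.5-fold or more in the series; inconclusive means self-fluorescent or not available for retest; tested in PC3 cells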;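 further: first round at 10 µM; read as green reporter fluorescence; hits show the peak of a series up to 25 µM; 1 = signal of infected wells without compound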
PKD1 kinase inh – blocks activity of human protein kinase D1 | PKD1 kinase fluorescence polarization assay | inhibition, %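 (about 10 µM by stock and volumes)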 | 0.056% of 200,000 active;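 active means inhibition of 50% or more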;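 further: controls were vehicle for no effect and a reference inhibitor for full effect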
Insulin prom inh cell count – also measured in Insulin prom inh; calls as there; normalized cell count, %; measured here: cell count, toxicity; reference of the scale not given here;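 cells exposed to compound for 48 h; stained nuclei by imaging scaled within each plate; lower means fewer cells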
HSV augment primary fold – further read-out of HSV augment, marked with its call; fold increase; compound at 10 µM; measured here: primary screen fold increase 10 uM; tested in PC3 cells;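 GFP signal in the first replicate; 1 = infected wells without compound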
Starred values were filed as active, the others as inactive; i = inactive; ? = inconclusive; / = not tested or not shown.

Values run as follows: Insulin prom inh | Insulin prom inh cell count | GALR2 ag | RGS16-Gao | HSV augment | HSV augment primary fold | PKD1 kinase inh
CC(C)c1ccc(NC(=O)CSc2ncccc2C(=O)Oc2cccc([N+](=O)[O-])c2)cc1
  3 | 87 | -0.5 | 102 | i | 1 | -3
CCOc1ccccc1NC(=O)[C@@H](NC(=O)c1cccc(S(=O)(=O)N2CCOCC2)c1)C(C)C
  / | / | / | 99 | i | 0.93 | 3
Cc1onc(-c2c(F)cccc2Cl)c1C(=O)Nc1cccc(Cn2cccn2)c1
  0 | 88 | -1.3 | 110 | i | 0.92 | -2
CCOC(=O)C1CCN(Cc2ccc(F)cc2)CC1
  28 | 112 | -1.0 | 104 | i | 0.84 | -2
CC(=O)OC(C(=O)NC1CCCCC1)c1ccccc1 (stereo not given)
  34 | 102 | -1.3 | 106 | i | 1 | 3
C/C(=N/OCO/N=C(\C)c1ccccc1)c1ccccc1
  / | / | -2.3 | 101 | i | 0.97 | -2
N/C(=N\OC(=O)Cc1ccc([N+](=O)[O-])cc1)c1cccc(Br)c1
  / | / | / | 98 | i | 0.88 | 1
O=C(Nc1ccccc1)c1ccccc1CCc1ccccc1
  / | / | -1.7 | 98 | i | 0.87 | 2
COC(=O)c1ccc(CSc2nnc(NC(=O)C3CCCO3)s2)cc1 (stereo not given)
  42 | 90 | -1.6 | 94 | i | 0.87 | -1
C/C(=C\C(=O)c1ccccc1)Nc1ccc(N2CCOCC2)cc1
  15 | 99 | -0.8 | 89 | i | 1 | -6
C(=N\Nc1nc2ccccc2[nH]1)/c1ccc2c(c1)OCO2
  38 | 80 | / | 102 | i | 0.91 | -13
O=C1CCC(=O)N1CCC(c1ccc(F)cc1)c1ccco1 (stereo not given)
  -282 | 31 | -1.5 | 101 | i | 0.86 | 0
CCOC(=O)c1ccc(N2C(=O)CC(N3CCN(C(=O)c4ccccc4)CC3)C2=O)cc1 (stereo not given)
  / | / | / | 100 | i | 1.1 | -5
CCC(C)(C)NC(=O)C(OC(=O)c1ccco1)c1ccccc1OC (stereo not given)
  11 | 94 | -2.8 | 100 | i | 0.86 | -8
Cc1ccc(NC(=O)CCN2C(=O)CSC2=O)cc1
  25 | 112 | -1.6 | 137 | i | 0.98 | 0
Cc1ccc(C2=[N+]([O-])C(C)(C)N(O)C2(C)C)cc1
  3 | 121 | -1.5 | 100 | i | 1 | -7
O=C(N/N=C\c1c(O)ccc2ccccc12)c1ccc(Cn2cccn2)o1
  -15 | 53 | -1.6 | 12* | ? | / | -6
O=C(O)c1cccc(S(=O)(=O)Nc2ccc(O)c(Sc3nc4ccccc4s3)c2)c1
  / | / | / | 95 | i | 0.98 | 5
COc1ccc(OC)c(CC(NC(C)=O)C(=O)NC2CCN(c3nnnn3-c3ccccc3)CC2)c1 (stereo not given)
  / | / | / | 102 | i | 0.98 | /
C=CCn1c(CSCc2ccc(Cl)cc2Cl)nnc1SCC(=O)Nc1ccc(C(=O)O)cc1
  / | / | / | 105 | i | 0.92 | /

Another view of part of the listing above:
SMILES | Insulin prom inh | Insulin prom inh cell count | GALR2 ag | RGS16-Gao | HSV augment | HSV augment primary fold | PKD1 kinase inh
C=CCn1c(CSCc2ccc(Cl)cc2Cl)nnc1SCC(=O)Nc1ccc(C(=O)O)cc1 | / | / | / | 105 | i | 0.92 | /
CCC(C)(C)NC(=O)C(OC(=O)c1ccco1)c1ccccc1OC (stereo not given) | 11 | 94 | -2.8 | 100 | i | 0.86 | -8
C/C(=N/OCO/N=C(\C)c1ccccc1)c1ccccc1 | / | / | -2.3 | 101 | i | 0.97 | -2
O=C(Nc1ccccc1)c1ccccc1CCc1ccccc1 | / | / | -1.7 | 98 | i | 0.87 | 2
C(=N\Nc1nc2ccccc2[nH]1)/c1ccc2c(c1)OCO2 | 38 | 80 | / | 102 | i | 0.91 | -13
Cc1ccc(NC(=O)CCN2C(=O)CSC2=O)cc1 | 25 | 112 | -1.6 | 137 | i | 0.98 | 0

Other compounds:
Values run as follows: Insulin prom inh | Insulin prom inh cell count | GALR2 ag | RGS16-Gao | HSV augment | HSV augment primary fold | PKD1 kinase inh
O=C(Nn1cnnc1)c1csc2ccccc12
  -46 | 80 | -2.7 | 104 | i | 0.85 | -4
O=C(CNC(=O)Cn1cnc2sc3c(c2c1=O)CCCC3)NCc1ccccn1
  / | / | -0.2 | 90 | i | 0.82 | -4
O=C(O)COc1cccc(NC(=O)c2ccccc2)c1
  13 | 105 | -0.5 | 45 | i | 0.69 | -1
COc1ccc(CCNC2=CC(=O)N(c3ccc(F)cc3)C2=O)cc1
  25 | 167 | / | 108 | i | 0.89 | -2
Cc1ccccc1OCCn1cc(C(=O)O)c2ccccc21
  45 | 39 | / | 126 | i | 1.1 | -5
CC(C)(C)NC(=O)COc1ccc(CNCc2ccccn2)cc1
  -20 | 49 | / | 107 | i | 1.1 | 1
CCN1C(=O)C(CC(=O)N2CCN(C(c3ccccc3)c3ccccc3)CC2)N(CC)C1=O (stereo not given)
  25 | 103 | -1.7 | 87 | i | 0.93 | -9
CCN(Cc1ccccc1)C(c1cc2cc(C)cc(C)c2[nH]c1=O)c1nnnn1CCOC (stereo not given)
  19 | 120 | -1.1 | 73 | i | 0.97 | 4
COc1ccc(N/N=C(\C#N)C(N)=O)cc1
  35 | 117 | -2.7 | 100 | i | 1.1 | 3
CC(=O)Nc1ccc(Sc2ccccc2C(=O)N2CCCC2)cn1
  36 | 111 | / | 100 | i | 1.1 | 2
Cc1ccc(CN(CC(=O)NC(C)(C)C)C(=O)CNC(=O)c2cccs2)cc1
  / | / | / | 78 | i | 1.1 | 7
Cc1ccccc1NC(=O)Cn1c(=O)n(CC2CCCO2)c(=O)c2ccccc21 (stereo not given)
  / | / | / | 97 | i | 1 | -1
CC(C)c1nnc(NC(=O)CN2C(=O)c3ccccc3C2=O)s1
  47 | 106 | -4.2 | 107 | i | 0.86 | -1
COc1cc(-c2nnc(COC(=O)C3c4ccccc4Oc4ccccc43)o2)cc(OC)c1OC
  / | / | -1.3 | 101 | i | 1 | -6
COc1ccc(-c2nn(-c3ccccc3)cc2/C=N/NC(N)=S)cc1OC
  -111 | 10 | -0.1 | 106 | i | 0.65 | 2
CC1C(c2ccccc2)=[N+]([O-])C2(CCCCC2)N1O (stereo not given)
  -49 | 89 | -1.2 | 96 | i | 1.1 | -10
O=C(CN(CCc1ccccc1)S(=O)(=O)c1ccc(Cl)cc1)N/N=C/c1ccccc1C(=O)O
  / | / | / | 102 | i | 1 | 2
CC(C)(O)CCCC(C)(O)c1ccc(C(=O)O)cc1O (stereo not given)
  / | / | / | 111 | i | 0.91 | /
COc1cc(CCC(=O)Nc2cc(C)cc(C)c2)cc(OC)c1OC
  55 | 141 | / | 122 | i | 0.86 | 3
O=C(COC(=O)c1cccs1)NC12CC3CC(CC(C3)C1)C2
  / | / | / | 98 | i | 0.84 | -7
COc1ccc2oc(C(=O)OCC(=O)c3ccc4c(c3)OCCO4)c(C)c2c1
  14 | 123 | -3.1 | 102 | i | 0.81 | -1
NS(=O)(=O)c1ccc(NC(=O)Cn2ncc3c2-c2ccccc2OC3)cc1
  / | / | -3.3 | 101 | i | 0.84 | 0
CCc1ccc2c(CSc3nnnn3C)cc(=O)oc2c1
  / | / | / | 103 | i | 1 | /
Fc1ccccc1CSc1nnc(-c2cccnc2)o1
  -7 | 140 | / | 111 | i | 0.93 | 3
Cc1cccnc1NC(=O)C12CCC(C)(C(=O)O1)C2(C)C (stereo not given)
  11 | 36 | -2.0 | 100 | i | 1.2 | -10
O=S(=O)(Nc1cccc(Oc2cnccn2)c1)c1ccc(F)cc1
  -71 | 99 | / | 100 | i | 0.95 | -8
Cc1cccc(N2CCN(C(=O)c3c(C)nn(Cc4ccccc4Cl)c3C)CC2)c1C
  -13 | 112 | -1.1 | 103 | i | 0.86 | -2
Sc1oc(-c2ccccc2)cc1C=Nc1ccccc1
  -11 | 111 | -2.0 | 90 | i | 0.96 | -1
Cc1ccc(NC(=O)Nc2cc(S(C)(=O)=O)ccc2Cl)cc1
  / | / | / | 101 | i | 0.94 | /
Cc1c(NC(=O)CN2C(=O)NC(CCc3ccccc3)C2=O)c(=O)n(-c2ccccc2)n1C (stereo not given)
  / | / | / | 101 | i | 0.93 | -2
Fc1ccc(C2CC(c3cccs3)=NN2c2ccccc2)cc1 (stereo not given)
  40 | 35 | / | 113 | i | 1.1 | 7
CCCCCC(=O)c1ccc(O)cc1O
  / | / | / | 104 | i | 1 | -7
Cc1ccc(C(=O)C2=C(O)C(=O)N(CCCN3CCOCC3)C23C(=O)N(C)c2ccccc23)o1 (stereo not given)
  -42 | 90 | -3.8 | 106 | i | 0.89 | -4
Cn1c(Cl)c(/C=N/OC(=O)c2ccc(Cl)cc2)c2ccccc21
  -67 | 98 | -2.1 | 103 | i | 0.94 | 3
N#Cc1c(-c2ccccc2Cl)cc(C2CC2)nc1N
  36 | 149 | 2.6 | 101 | i | 0.91 | 6
O=C(CCN1C(=O)c2cccc3cccc(c23)C1=O)NCC1CCCO1 (stereo not given)
  / | / | / | 101 | i | 0.96 | /
O=C(NN=C1C2CC3CC1CC(Cl)(C3)C2)c1cccs1
  29 | 204 | / | 108 | i | 1.1 | -8
CC(=O)Nc1ccccc1NS(=O)(=O)c1ccccc1[N+](=O)[O-]
  -7 | 128 | / | 123 | i | 0.94 | -6
Cn1nc(-c2ccccc2)c(-c2nc(-c3cccc(Cl)c3)no2)c1Cl
  -14 | 99 | -2.1 | 94 | i | 0.96 | 6
CCN(CC)c1ccc(N/C(N)=N/c2nc(C(F)(F)F)cc(=O)[nH]2)cc1
  50 | 96 | / | 107 | i | 0.9 | -2

Records above printed as active in RGS16-Gao.
compound,GALR2 ag,RGS16-Gao,HSV augment,HSV augment primary fold,PKD1 kinase inh
O=C(N/N=C\c1c(O)ccc2ccccc12)c1ccc(Cn2cccn2)o1,-1.6,12*,?,/,-6

(listing goes on)
Values run as follows: Insulin prom inh | Insulin prom inh cell count | GALR2 ag | RGS16-Gao | HSV augment | HSV augment primary fold | PKD1 kinase inh
O=C(CCCCn1c(=S)[nH]c2ccsc2c1=O)NCc1ccc2c(c1)OCO2
  10 | 34 | / | 96 | i | 0.96 | 5
COc1ccc(C2Nc3ccc4ccccc4c3-c3c2c(=O)oc2ccccc32)cc1 (stereo not given)
  30 | 68 | -1.4 | 102 | i | 0.76 | -4
COC(=O)c1cc(OC)c(OC)cc1NC(=S)N1CCCC(CO)C1 (stereo not given)
  8 | 105 | -1.8 | 101 | i | 0.77 | 6
COCc1cc(C)nc(Nc2ccc(C)c(C)c2)c1C#N
  / | / | -2.5 | 110 | i | 0.84 | -7
Nc1nc(NCc2ccccc2)nc(NCCO)c1[N+](=O)[O-]
  / | / | / | 78 | i | 0.75 | /
COc1cc(NC(=O)C2CC(=O)NC3=C2C(=O)CCC3)c(OC)cc1Cl (stereo not given)
  44 | 84 | -0.6 | 102 | i | 0.82 | -5
CCOc1ccccc1-c1nc2c([nH]1)c(=O)n(C)c(=O)n2C
  -29 | 59 | 0.8 | 91 | i | 1.3 | -7
Cc1ccc(NC(=O)c2cc(N(C)C)ccc2[P+](=O)O)cc1
  -7 | 98 | -2.3 | 105 | i | 0.99 | 3
CCOC(=O)/C=C/C(=O)NNC(=O)c1ccccc1Cl
  -21 | 123 | / | 97 | i | 1.1 | 15
O=C(COC(=O)/C=C/c1ccccc1[N+](=O)[O-])Nc1ccc(OC(F)F)cc1
  6 | 69 | -0.8 | 115 | i | 1 | 5
COc1ccc(COC(=O)N/N=C(\C)CC(=O)NCc2ccc(Cl)cc2)cc1
  / | / | / | 88 | i | 0.92 | 3
O=C(NC1CC1)C1CCN(C2CCN(C(=O)/C=C/c3cccs3)CC2)CC1
  / | / | / | 128 | i | 0.63 | -2
CCCCN(CC)CCCNC(=O)c1cc2cc3ccc(OC)cc3nc2o1
  -6 | 82 | -2.1 | 97 | / | / | -10

Filtered by structure, those above containing a cyano group.
Values run as follows: Insulin prom inh | Insulin prom inh cell count | GALR2 ag | RGS16-Gao | HSV augment | HSV augment primary fold | PKD1 kinase inh
COc1ccc(N/N=C(\C#N)C(N)=O)cc1
  35 | 117 | -2.7 | 100 | i | 1.1 | 3
N#Cc1c(-c2ccccc2Cl)cc(C2CC2)nc1N
  36 | 149 | 2.6 | 101 | i | 0.91 | 6
COCc1cc(C)nc(Nc2ccc(C)c(C)c2)c1C#N
  / | / | -2.5 | 110 | i | 0.84 | -7
